# From PubChem
# Cruzain noTriton = inhibitors of Trypanosoma cruzi cruzain without detergent | P25779 | purified cruzain, Z-FR-AMC fluorescence, no detergent | Potency, µM, inactives show max response, negative = inhibition, usual class: inhibitors | 200,000 tested, 2.3% active;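 note: plate controls were enzyme without inhibitor for no effect and buffer without enzyme for full effect; nearly all actives have a fitted effect of over 40% in size; top concentration of the series not given in the record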
# Target sequence (P25779 123-467 limits assumed): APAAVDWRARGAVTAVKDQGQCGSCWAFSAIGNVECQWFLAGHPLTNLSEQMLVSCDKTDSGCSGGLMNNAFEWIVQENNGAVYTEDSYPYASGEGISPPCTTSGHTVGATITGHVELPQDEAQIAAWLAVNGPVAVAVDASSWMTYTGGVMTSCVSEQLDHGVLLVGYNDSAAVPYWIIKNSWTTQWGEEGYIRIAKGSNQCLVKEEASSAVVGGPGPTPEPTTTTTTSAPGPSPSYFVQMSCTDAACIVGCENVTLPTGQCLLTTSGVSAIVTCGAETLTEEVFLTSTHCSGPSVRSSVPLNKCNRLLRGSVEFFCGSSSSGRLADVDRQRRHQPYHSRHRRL
#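 Detergent-free condition (0.00005% Triton X-100) in acetate buffer pH 5.5 with DTT. 1.5 nM enzyme and compound were pre-mixed 15 min, then 2 uM Z-FR-AMC substrate added; reaction progress from fluorescence change between first and third reads (60 s).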
# SARS PLP yeast = SARS-CoV PLP inhibition in yeast | S. cerevisiae expressing SARS-CoV PLpro, growth rescue; control for the full effect not named in the record | Potency, µM (doses to about 32.9 µM), for inactives: at the top dose activity, positive = growth rescue | 330,000 tested, 0.19% active; active means well fitted rising curve with a large enough effect; inconclusive means small, poorly fitted or top-dose-only effect; inactive means no such curve, though single readings can be large or run the other way; note: 0% is about no effect; nearly all actives have a fitted effect of over 55% in size; growth read by luminescence after 48 h
# StopGo reporter = lowers the luciferase signal of an FMDV 2A StopGo reporter; human cells with a luciferase reporter of 2A StopGo recoding; control for the full effect not named in the record; Potency, µM (series often up to 57.9 µM), for inactives: at the top dose signal change, negative = less light; 410,000 tested, 1.2% active; active = well fitted falling curve with a large enough effect; inconclusive = small, poorly fitted or top-dose-only effect; inactive = no such curve, though single readings can be large or run the other way; tested in HEK293T cells; note: % is set by controls: 0 for no effect and ±100 for the full control effect; nearly all actives have a fitted effect of over 45% in size; luciferase light after 4 h
# Marburg entry inh = Marburg virus entry inhibition; Marburg virus pseudotyped entry inhibition, cell reporter; control for the full effect not named in the record; about a third of the inactives were read at about 46 µM; 300,000 tested, 1.8% active; Potency, µM (top dose mostly 37.8 µM), for inactives: at the highest dose activity change, negative = inhibition, hits mostly inhibitors; AID 540276; active = well fitted inhibition curve with a large enough effect; inconclusive = small, poorly fitted or top-dose-only effect, or effect the other way; inactive = flat fitted curve, though single readings scatter; tested in HEK293 cells; about a fifth of its hits are not listed in these tables; note: % is set by controls: 0 for no effect and ±100 for the full control effect; luciferase read-out
# LASV entry inh = blocks Lassa virus binding to or entry into cells. AID 540256. 300,000 tested, 1.2% active. Potency, µM (doses to about 37.9 µM), for inactives: top-dose activity change, negative = inhibition, most hits filed as inhibitors. Lassa virus pseudotype entry inhibition, cell reporter; control for the full effect not named in the record; active means well fitted inhibition curve with a large enough effect; inconclusive means small, poorly fitted or top-dose-only effect, or effect the other way; inactive means flat fitted curve, though single readings scatter; tested in HEK293 cells; note: % is set by controls: 0 for no effect and ±100 for the full control effect; nearly all actives have a fitted effect of over 50% in size; luciferase read-out
# Cruzain Triton = blocks cruzain activity in presence of Triton detergent. Potency, µM, for the others: max response, negative = inhibition, hits mostly inhibitors. 200,000 tested, 0.43% active. purified cruzain, Z-FR-AMC fluorescence, 0.01% Triton. AID 1478. P25779;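 note: plate controls were neutral wells for no effect and buffer without enzyme for full effect; nearly all actives have a fitted effect of over 40% in size; top concentration of the series not given in the record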
#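 Compounds were screened in titration against cruzain (1.5 nM) with 0.01% Triton X-100 to counter colloidal aggregation. Activity was the AMC fluorescence increase over 60 s after adding 2 uM Z-FR-AMC at pH 5.5.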
# RE007 growth inh = less growth of the S. pombe RE007 Vpr strain | Potency, µM (highest dose often 92.2 µM), without a hit: at the highest dose activity change, negative = less growth | AID 651644 | S. pombe RE007 Vpr strain, BacTiter-Glo ATP luminescence, 24 h; control for the full effect not named in the record | 360,000 tested, 0.21% active; active = well fitted falling curve with a large enough effect; inconclusive = small, poorly fitted or top-dose-only effect; inactive = no such curve, though single readings can be large or run the other way;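 note: % is set by controls: 0 for no effect and ±100 for the full control effect; nearly all actives have a fitted effect of over 50% in size; the assay follows cell death caused by Vpr and the record does not say whether a fall means rescue or toxicity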
#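 Fission yeast RE007 carrying one integrated HIV-1 vpr copy, seeded at OD 0.01 in PMG+AL medium with 23 nL pinned compound. Grown 24 h at 30 degrees; viability read by BacTiter-Glo luminescence after 5 min.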
# NS1 inh = inhibitors of influenza NS1 protein function; S. cerevisiae slowed by influenza A NS1, growth recovery by OD600; Potency, µM (doses to about 46.1 µM), without a hit: top-dose activity, positive = more growth; 270,000 tested, 0.4% active; AID 2326; active means well fitted rising curve with a large enough effect; inconclusive means small, poorly fitted or top-dose-only effect; inactive means no such curve, though single readings can be large or run the other way; note: nearly all actives have a fitted effect of over 50% in size
#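 OD600 was taken as the measure of yeast growth restored by compound in an NS1-expressing S. cerevisiae strain. Cells had been washed out of glucose medium and diluted 1:100 into galactose -URA medium, pH 6.0.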
# * = called active by the depositor; u = inconclusive; x = no result given; & = joins results of further samples; [ ] = remark or other dose. Unless noted, calls come from the whole dose curve; as a rule, active = well fitted curve in the direction sought with a large enough effect; inconclusive = small, poorly fitted or top-dose-only effect, or another doubt; inactive = no such curve, though single readings can be large; an effect the other way counts as inactive or inconclusive. Potency is the fitted concentration of half-maximal effect. Compounds as they come; 4.6% or so of the library scored in one or more.
canonical_smiles,Cruzain noTriton,SARS PLP yeast,StopGo reporter,Marburg entry inh,LASV entry inh,Cruzain Triton,RE007 growth inh,NS1 inh
Cc1ccc(CCN2CC(C(=O)NCCCN3CCOCC3)CC2=O)cc1 (stereo not drawn),3.4%,-4.7%,-11.8%,9.0%,1.0%,5.4%,-1.4%,1.3%
Oc1ccc(CC2CC3CCN2CC3)cc1O (stereo not drawn),3.8%,5.7%,-14.8%,u,0.1%,4.4%,15.3%,-1.1%
CCOC(=O)c1ccccc1NC(=O)COC(=O)c1ccc(OCC(=O)N2CCOCC2)c(OCC)c1,x,x,u,u,-14.1%,x,18.7%,x
CC(Oc1cccc(Cl)c1)C(=O)NCc1ccc(S(N)(=O)=O)cc1 (stereo not drawn),x,0.1%,-13.1%,11.4%,1.4%,x,1.3%,0.0%
Cc1cc(/C=C2\NC(=S)N(C)C2=O)ccc1N1CCCC1,x,-0.3%,7.4%,3.2%[46.1 µM],18.2%[46.1 µM],x,-28.7%,-2.2%
CCOc1ccccc1C(=O)N1CCC(n2nnc3cc(C)ccc32)CC1,-8.3%,-10.0%,-26.8%,u,-13.7%,2.6%,18.7%,-7.5%
COCC(=O)N(C)c1nnc(-c2ccc([N+](=O)[O-])cc2)s1,-4.1%,-2.4%,x,14.4%,6.2%,1.8%,-7.6%,7.6%
Cc1ccccc1NC(=O)COC(=O)c1ccc(S(C)(=O)=O)c([N+](=O)[O-])c1,x,0.7%,31.6µM*,9.2µM*,20.6µM*,x,-3.8%,0.6%
COc1ccc(Nc2nnc(SCC(=O)NC(=O)Nc3ccc4c(c3)OCCO4)s2)cc1,x,0.9%,0.0%,x,x,x,-2.9%,10.0%
Cc1ccc(C(=O)NCc2cccnc2)o1,x,-3.0%,8.1%,x,x,x,5.2%,3.2%

# Part of the list above, with two lines to a compound:
# Values run as follows: Cruzain noTriton | SARS PLP yeast | StopGo reporter | Marburg entry inh | LASV entry inh | Cruzain Triton | RE007 growth inh | NS1 inh
- CCOC(=O)c1ccccc1NC(=O)COC(=O)c1ccc(OCC(=O)N2CCOCC2)c(OCC)c1
 : x | x | u | u | -14.1% | x | 18.7% | x
- COc1ccc(Nc2nnc(SCC(=O)NC(=O)Nc3ccc4c(c3)OCCO4)s2)cc1
 : x | 0.9% | 0.0% | x | x | x | -2.9% | 10.0%

# Further compounds follow:
canonical_smiles,Cruzain noTriton,SARS PLP yeast,StopGo reporter,Marburg entry inh,LASV entry inh,Cruzain Triton,RE007 growth inh,NS1 inh
COc1ccc(-c2nc(CS(=O)(=O)CC(=O)NCc3ccc(F)cc3)c(C)o2)cc1,x,6.1%,4.0%,u,6.8%[46.1 µM],x,5.5%,-0.2%
NS(=O)(=O)c1ccc(CCNC(=O)CN2CCN(c3ccc(F)cc3)CC2)cc1,-11.4%,-5.9%,u,u,u,-3.1%,0.6%,0.0%
CC1CC(C)CN(S(=O)(=O)c2ccc3c(c2)oc(=O)n3CC(=O)NCCCOC(C)C)C1 (stereo not drawn),x,3.3%,8.6%,x,x,x,1.9%,-2.8%
CCCCn1c(N)c(N(CC(C)C)C(=O)C2CC(=O)N(c3ccc4c(c3)OCCO4)C2)c(=O)[nH]c1=O (stereo not drawn),x,6.3%,7.6%,u,1.1%,x,1.9%,x
COc1cc(-c2nc(S(=O)(=O)c3ccc(Cl)cc3)c(N3CCOCC3)o2)cc(OC)c1OC,u,-2.8%,-13.8%,-30.1%,-27.3%,1.7%,11.7%,-57.3%
CN(C)CCCNCCNC(=O)/C=N\O,5.1%,0.4%,x,19.2%,5.1%,1.5%,-3.8%,u
O=C(COc1cccnc1[N+](=O)[O-])NCCc1ccc(Cl)cc1,x,-4.8%,17.2%,-0.3%[46.1 µM],-11.8%,x,-5.0%,2.5%
COc1ccc(C(=O)N2CCCC(CCC(=O)NCc3ccccc3F)C2)c(OC)n1 (stereo not drawn),x,-15.2%,2.8%,-9.4%[46.1 µM],6.7%[46.1 µM],x,-3.7%,3.3%
Cc1c(C(O)CN2CCN(Cc3ccc4c(c3)OCO4)CC2)c2ccccc2n1C (stereo not drawn),-3.8%,-2.1%,-14.2%,u,u,3.6%,-11.6%,14.0%
CCN(C(=O)CCc1nc(-c2ccc(OC)cc2)no1)c1cc(OC)ccc1OC,u,-18.8%,u,-16.7%,u,-7.3%,29.0%,-78.0%
CCCC(C(=O)NC1CCCC1)N(CCCN1CCOCC1)C(=O)c1snc(C(N)=O)c1N (stereo not drawn),2.3%,4.3%,17.6%,0.0%&26.1%,1.0%,1.6%,-7.6%,-0.7%
CCn1c(=N)c(C(=O)NCc2ccccc2)cc2c(=O)n3cccc(C)c3nc21,14.2%,x,-22.9%,u,u,-6.5%,x,x
COc1ccc2nc(NC(=O)C3CCN(S(=O)(=O)c4cnc[nH]4)CC3)sc2c1,1.3%,1.3%,-18.9%,-16.9%,-17.5%,-3.9%,-1.6%,0.8%
CCOP(=O)(C1=C(O)C(=O)C(C(C)(C)C)=CC1=O)c1ccccc1 (stereo not drawn),x,12.1%,u,25.1%[46.1 µM],14.4%,x,-13.0%,x
COCCNC(=O)c1c(N)n(/N=C/c2ccc(F)cc2)c2nc3ccccc3nc12,x,-0.7%,-28.0%,x,x,x,3.3%,9.6%
COc1ccc(NC(=O)C2CCN(c3nc(-c4ccc(OC)cc4)no3)CC2)cc1,x,-1.7%,-21.9%,x,x,x,2.5%,-7.7%
CCOc1nc(NC(=O)NS(=O)(=O)Oc2cccc(F)c2)nc(-c2ccccc2)n1,-9.4%,x,24.5%,23.6%[46.1 µM],13.4%[46.1 µM],-0.7%,x,x
Cc1cccc(N(C(=O)c2nsc(Cl)c2Cl)C(C(=O)NC2CCCC2)c2ccc(O)cc2)c1 (stereo not drawn),4.9%,5.6%,13.2%,3.9%,u,0.3%,2.6%,14.2%
CCc1ccccc1NC(=O)C(=O)NCCc1sc(-c2cccc(F)c2)nc1C,-19.2%,x,-9.2%,x,12.7%[46.1 µM],-2.8%,x,x
CC(C)OC(=O)CSc1nc(N)c(C#N)c(-c2cccs2)c1C#N,-20.1%,0.1%,u,-18.7%,3.1%,-8.5%,-1.2%,5.3%
CS(=O)(=O)N1CCCC(C(=O)Nc2ccccc2)C1 (stereo not drawn),x,-0.7%,8.0%,u,14.9%,x,23.4%,0.0%
CC(CC(=O)C1C(C)C=CCC1(C)C)NNC(N)=O (stereo not drawn),x,-0.4%,-8.8%,u,-15.3%,x,-2.4%,-1.9%
COc1ccccc1N1C(=O)CC(Sc2ncccc2C(=O)O)C1=O (stereo not drawn),0.1%,-26.1%,-15.3%,5.1%[46.1 µM],1.7%,2.2%,17.3%,2.4%
O=C(CSc1nnnn1-c1ccccc1)Nc1ccc(N2CCOCC2)cc1,x,-2.1%,-17.3%,-6.2%[14.2 µM],14.8%,x,1.2%,1.2%
CCCCN(CCCC)S(=O)(=O)c1ccc(N2CCCC2=O)c([N+](=O)[O-])c1,x,x,-7.5%,-2.5%,-0.9%,x,-3.2%,x
CCC(C)(C)NC(=O)C(c1ccc(OC)cc1)N(Cc1ccco1)C(=O)CCC(=O)Nc1cc(C)on1 (stereo not drawn),21.8%,-18.8%,-1.4%,u,u,1.5%,-2.4%,1.0%
O=C(c1ccc(Cl)c(Cl)c1)N1CCC(=O)N(C(COCc2ccccc2)Cc2ccccc2)CC1 (stereo not drawn),1.7%,-5.9%,-8.0%,-39.4%,u,-10.5%,-2.5%,-17.0%
O=C(NNS(=O)(=O)c1cccc(Cl)c1Cl)c1cccc(S(=O)(=O)N2CCOCC2)c1,-12.3%,u,49.2%[activator],-9.4%,1.3%,-6.9%,-4.6%,-2.8%
COc1ccc(NC(=O)c2cc(S(=O)(=O)N3CCCCCC3)cn2C)cc1Cl,6.4%,x,0.0%,x,-1.1%[46.1 µM],-7.7%,x,x
CCn1ncc(C2=NOC(C(=O)Nc3c(C)n(C)n(-c4ccccc4)c3=O)C2)c1C (stereo not drawn),5.3%,0.1%,-17.8%,x,x,0.6%,0.4%,2.5%
CCOc1ccc(CCNC(=O)c2nnn(CC(=O)Nc3ccc(OC)c(OC)c3)c2N)cc1OCC,x,6.3%,-12.2%,-3.7%[46.1 µM],u,x,-17.3%,8.0%
CCC(=NCCCN1CCOCC1)c1c(O)n(-c2ccccc2C)c(=O)[nH]c1=O,x,0.4%,7.1%,x,x,x,-4.7%,-0.8%
CCOc1ccccc1CNC(=O)c1ccc2nc(Cc3ccc(OC)cc3)oc2c1,6.3%,x,-27.2%,x,-20.4%[46.1 µM],-4.3%,x,x
CCCC(=O)Nc1nc(-c2ccc3c(c2)OCCO3)cs1,-3.7%,-12.3%,-4.8%,x,x,-6.9%,-11.7%,-14.1%
CCc1nc2ccccc2c(C(=O)OC2CCCCC2=O)c1C (stereo not drawn),x,0.2%,-3.4%,u,-9.1%,x,-4.5%,x
CC1=C(c2ccccc2)C(=S)NC(C)(C)C1,x,0.0%,-22.8%,7.3%[46.1 µM],28.4%,x,0.0%,2.5%
NNC(=O)c1cc(NS(=O)(=O)c2cccs2)cc(NS(=O)(=O)c2cccs2)c1,x,2.7%,-15.5%,-6.1%,u,x,6.0%,x
CCOc1ccc(Nc2nc(C)c(NC(=O)c3cccc(OC)c3)c(Nc3ccc(OCC)cc3)n2)cc1,u,x,u,11.2µM*,2.8%[46.1 µM],-7.8%,x,x
COc1ccc(C)cc1NC(=O)Nc1cc(C(=O)NCc2ccc(C)cc2)ccc1N1CCCC1,-8.9%,x,43.0%[activator],x,1.6%[46.1 µM],0.7%,x,x
Oc1ccc(-c2nc3ccccc3nc2-c2ccc(O)cc2O)c(O)c1,x,x,-21.1%,u,u,x,1.4%,x
O=C(NCSc1ccnc(SCNC(=O)c2ccc(F)cc2)n1)c1ccc(F)cc1,-3.6%,1.1%,-16.3%,15.3%,-3.2%,-5.8%,0.7%,18.6%
COc1ccccc1N1C(=O)S/C(=C\c2cc(C)n(C)c2C)C1=O,x,0.3%,22.2%,x,x,x,-3.2%,4.0%
